Screening data as filed in PubChem.
NPYLR7 ag – mosquito NPYLR7 agonism | HEK293T NPYLR7/Galpha15, GCaMP6s calcium fluorescence | activation, % at 10 µM | hit rate 0.15% among 270,000; in the data active means activation above about 40%;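 further: 0% = vehicle and 100% = reference agonist at the receptor; some compounds past the cut are filed as inactive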
NPYLR7 ag max-min – recorded beside NPYLR7 ag, whose call it bears; activation, %; measured here: Max-Min RFU normalised activation; some inactives read as strong as hits;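 span of the calcium signal over five minutes; 0% = vehicle and 100% = native peptide agonist; compound fluorescence can raise it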
The depositor's hits bear a star. This is a subset; rates above refer to the full screens.

[1] C=CCNC(=O)Cn1cc(OC)c(=O)cc1CSc1ncccn1
[2] CCC(C)C(=O)Nc1ccnn1C1CCCc2ccccc21 (configuration not stated)
[3] CN(C)c1ccc(CO)cc1F
[4] Cc1cc(C)c(C)c(S(=O)(=O)N2CCC(C(=O)NCCc3cccs3)CC2)c1C
[5] CCc1cccc2c(C(CC(=O)NC3CC3)c3cccc(OC)c3)c[nH]c12 (configuration not stated)
[6] Cc1ccc(S(=O)(=O)Nc2cccc(-c3nc(C)cc(=O)[nH]3)c2)cc1

assay / compound,1,2,3,4,5,6
NPYLR7 ag,-5,-24,18,0,38,-1
NPYLR7 ag max-min,-8,-26,14,25,42,0

[7] CCn1c(C(=O)N2CCN(C(=O)CCc3ccccc3)C(C)C2)cc2ccsc21 (configuration not stated)
[8] COc1cc(C)c(S(=O)(=O)Nc2ccc(Oc3ccncc3)cc2)c(C)c1
[9] O=C(CCc1cccnc1)N1C[C@@H]2[C@@H]3CC[C@@H](C3)[C@@H]2C1
[10] O=C(C1CCCN(C2CCN(c3ccc(Cl)cn3)CC2)C1)N1CCCC1 (configuration not stated)
[11] CCN1CCCC1CNC(=O)C1CCN(C2CCN(Cc3ccccc3C)CC2)CC1 (configuration not stated)
[12] CC1=C[C@@H](CNCCc2cnc[nH]2)[C@H](C(C)C)C[C@H]1Cc1nnc(COc2ccc(F)cc2)o1

assay / compound,7,8,9,10,11,12
NPYLR7 ag,31,5,7,24,2,-6
NPYLR7 ag max-min,40,2,5,19,-3,-13

[13] C=c1occc1=C1NN=C(SCCC23CC4CC(CC(C4)C2)C3)O1
[14] CCOC(=O)c1cc(-c2ccccc2)sc1NC(=O)c1ccc(SC(F)(F)F)cc1
[15] CN(C)CCNC(=O)c1ccc(CSc2ncccn2)o1
[16] CSc1nnc(CC2CCN(C(=O)[C@H](N)Cc3ccccc3)CC2)n1C
[17] Cn1cc(CC(=O)N2CCn3c(C(N)=O)cnc3C2)c2ccccc21
[18] O=C(CCn1nnc2ccccc21)N1CCc2c(nc[nH]c2=O)C1

assay / compound,13,14,15,16,17,18
NPYLR7 ag,2,3,-3,-3,10,9
NPYLR7 ag max-min,0,-3,-8,-7,8,7

[19] CCCc1[nH]ncc1C(=O)N1CCCN(Cc2ccc(F)cc2)C(C(C)C)C1 (configuration not stated)
[20] Fc1ccc(C2=NC3(CCCCCC3)NC2=S)cc1
[21] N#Cc1ccc(COC(=O)c2cccc(Cl)c2Cl)cc1
[22] CCOc1ccc(-n2nnc(C(=O)NCc3ccco3)c2COC)cc1
[23] Cc1ccccc1-c1onc(C)c1C(=O)NCC1CCCO1 (configuration not stated)
[24] CCCc1nn(Cc2c(Cl)cccc2Cl)c(=O)o1

assay / compound,19,20,21,22,23,24
NPYLR7 ag,-1,21,6,2,-5,0
NPYLR7 ag max-min,-5,14,5,3,6,5

[25] CC(C)CN1CCC(CNC(=O)c2ccc(N3CCSCC3)nc2)C1 (configuration not stated)
[26] CCc1cc(C(=O)N2CCOc3c(O)cc(-c4cccnc4)cc3C2)ccn1
[27] CCN(c1ccccc1)S(=O)(=O)c1ccc(N2CCCC(CO)C2)nc1 (configuration not stated)
[28] CCc1nc2ccc(C(=O)Nc3cccc(NS(C)(=O)=O)c3)cn2c1N(CC)C(=O)CCC1CCCC1
[29] COc1ccc(C(=O)c2ccc(Oc3cccc(C(C)=O)c3)c([N+](=O)[O-])c2)cc1
[30] CC1CN(Cc2nc3c(c(=O)[nH]c(=O)n3C)n2Cc2ccccc2F)CC(C)O1 (configuration not stated)

assay / compound,25,26,27,28,29,30
NPYLR7 ag,4,16,6,12,2,5
NPYLR7 ag max-min,0,4,1,7,0,1

Taken from above.
Entry for COc1ccc(C(=O)c2ccc(Oc3cccc(C(C)=O)c3)c([N+](=O)[O-])c2)cc1 in NPYLR7 ag: 2
Entry for CCc1cc(C(=O)N2CCOc3c(O)cc(-c4cccnc4)cc3C2)ccn1 in NPYLR7 ag max-min: 4
Entry for CCN(c1ccccc1)S(=O)(=O)c1ccc(N2CCCC(CO)C2)nc1 (configuration not stated) in NPYLR7 ag max-min: 1
Entry for CCc1nc2ccc(C(=O)Nc3cccc(NS(C)(=O)=O)c3)cn2c1N(CC)C(=O)CCC1CCCC1 in NPYLR7 ag max-min: 7
Entry for CC1CN(Cc2nc3c(c(=O)[nH]c(=O)n3C)n2Cc2ccccc2F)CC(C)O1 (configuration not stated) in NPYLR7 ag max-min: 1
Entry for CC(C)CN1CCC(CNC(=O)c2ccc(N3CCSCC3)nc2)C1 (configuration not stated) in NPYLR7 ag: 4

The results go on:
[31] CC(c1ccccc1)N(Cc1cccc(Cl)c1)Cc1nc(C(=O)NCC2CCCO2)co1 (configuration not stated)
[32] CC(=O)Nc1ccc(CN2CC[C@@H](c3sccc3C)[C@H](O)C2)cc1
[33] CNC(=O)NC(=O)C(C)Sc1nnc(-c2ccc(Cl)cc2)n1CCCOC (configuration not stated)
[34] O=C1CC(c2ccccc2)CC2=Nc3ccccc3NC(c3cccc([N+](=O)[O-])c3)C12 (configuration not stated)
[35] O=S1(=O)NC(=CSCc2ccccc2)Nc2ccccc21
[36] CC(=O)Oc1ccc(Cn2c(C)c(C(=O)NCC(F)(F)F)sc2=O)cc1

assay / compound,31,32,33,34,35,36
NPYLR7 ag,24,15,11,1,10,12
NPYLR7 ag max-min,24,9,14,1,4,8

Shown with two lines to a compound: entries from further up
Values in the order – NPYLR7 ag	NPYLR7 ag max-min
33) CNC(=O)NC(=O)C(C)Sc1nnc(-c2ccc(Cl)cc2)n1CCCOC (configuration not stated)
→ 11	14
34) O=C1CC(c2ccccc2)CC2=Nc3ccccc3NC(c3cccc([N+](=O)[O-])c3)C12 (configuration not stated)
→ 1	1
35) O=S1(=O)NC(=CSCc2ccccc2)Nc2ccccc21
→ 10	4

Other results:
[37] CN=c1scc(-c2ccc(Br)cc2)n1N=Cc1cc(OC)c(OC)c(OC)c1
[38] COCCNC(=O)c1c(NC(=O)c2ccccc2OC)sc2c1CCCC2
[39] Cc1nc(C(C)(C)NCCC(F)(F)F)sc1C
[40] CCNC(=O)Cn1c(CO)cnc1SCC(=O)Nc1cc(C)ccc1C
[41] CN(Cn1c(-c2ccccn2)csc1=O)C1CCc2ccccc21 (configuration not stated)
[42] CCOc1ccc(NC(=O)N[C@@H](Cc2ccccc2)C(=O)N2CCC(C(=O)N3CCCCC3)CC2)cc1

assay / compound,37,38,39,40,41,42
NPYLR7 ag,-8,8,2,3,0,5
NPYLR7 ag max-min,-10,21,1,2,6,26

[43] CC(N)=C(C#N)C(=O)COC(=O)c1ccc(Br)o1
[44] Cc1ccc(C2(C(F)(F)F)CCNC(=O)O2)o1 (configuration not stated)
[45] C=C(C)[C@@H]1CC=C(CN2C[C@@H](N)C[C@H]2C(=O)NCC)CC1
[46] O=C(NC(c1ccccc1)c1ccc2ccccc2n1)C1CCN(CCOc2ccc(Cl)cc2)CC1 (configuration not stated)
[47] COc1cc2c(cc1OC)C(c1cccc(C(F)(F)F)c1)N(C(=O)c1c(OC)cccc1OC)CC2 (configuration not stated)
[48] CC(C)(C)c1noc(CN2CCCc3c(F)cc(F)cc32)n1

assay / compound,43,44,45,46,47,48
NPYLR7 ag,13,-2,-1,3,28,0
NPYLR7 ag max-min,11,-3,0,-3,19,-1

Record cards, as listed above.
Entry for C=C(C)[C@@H]1CC=C(CN2C[C@@H](N)C[C@H]2C(=O)NCC)CC1 → NPYLR7 ag: -1; NPYLR7 ag max-min: 0
Entry for Cc1ccc(C2(C(F)(F)F)CCNC(=O)O2)o1 (configuration not stated) → NPYLR7 ag: -2; NPYLR7 ag max-min: -3

Other records.
[49] Cc1cc(C(=O)N(CCCN2CCOCC2)c2nc3c(F)cccc3s2)on1
[50] Cc1cccc(NC(=O)CN2CCN(Cn3nc(-n4cncn4)ccc3=O)CC2)c1C
[51] CC(C)C(CNC(=O)/C=C/c1ccco1)N1CCOCC1 (configuration not stated)
[52] CC(C(=O)Nc1ccc2c(c1)OCO2)N1CCN(c2cnn(-c3ccccc3)c(=O)c2Cl)CC1 (configuration not stated)
[53] CC1ON=C(c2cccc3ccccc23)N(C)C1=O (configuration not stated)
[54] N#CCCCOc1cccc(C2NC(=O)c3ccc(Cl)cc3N2)c1 (configuration not stated)

assay / compound,49,50,51,52,53,54
NPYLR7 ag,0,0,3,10,3,-8
NPYLR7 ag max-min,10,-1,3,3,-1,-10

[55] CCCCC(=O)N(C)c1c(C)nc2ccc(C(=O)N(C)CCN(C)C)cn12
[56] CCN(C(=O)Cn1cnc2c1c(=O)n(C)c(=O)n2C)C1CCCCC1
[57] Cc1cccnc1CN(C)C(=O)c1cc(CC(C)C)nc(N)n1
[58] O=C(CCN(Cc1ccco1)c1nc(Cc2ccc(F)cc2)ns1)NCc1ccc(F)cc1
[59] CCOc1cccc(CN2CCC(CCC(=O)Nc3ccc(OC)cc3OC)CC2)c1
[60] O=C(NCc1ccco1)c1cc2c(ccc3ccccc32)oc1=O

assay / compound,55,56,57,58,59,60
NPYLR7 ag,13,4,12,-14,18,-3
NPYLR7 ag max-min,0,4,11,-17,12,-8

[61] COc1ccc(CN2CCCn3cccc3C2c2cc([N+](=O)[O-])ccc2Cl)c(OC)c1 (configuration not stated)
[62] CCNc1ncc(C(=O)N2CCc3cc(OC)c(OC)cc3C2)cn1
[63] CCOc1ccccc1C(=O)NCC(=O)N1CCCN(S(C)(=O)=O)CC1
[64] COc1ccc(OC)c2sc(N(Cc3cccnc3)C(=O)c3cc(C)nn3C)nc12
[65] CCOC(=O)c1nn(CCc2ccccc2)c2c1CN(C(=O)CCc1nc3ccccc3s1)CC2
[66] Cc1cc(C)c2c(n1)nn1c(NCCCN(C)C)cc(C)nc21

assay / compound,61,62,63,64,65,66
NPYLR7 ag,-8,5,-3,3,4,3
NPYLR7 ag max-min,0,-6,-8,-2,-4,19

[67] Cc1ccc(CN2CCN(Cc3ccccc3CO)CC2)n1-c1cccnc1
[68] CCCC(=O)OCC(O)CN(Cc1ccc(F)cc1)Cc1ccc(C)cc1C (configuration not stated)
[69] O=c1[nH]c(N2CCc3ccccc3C2)nc2ncc3c(c12)CCC3
[70] COc1cn(CC(=O)NCc2ccccc2)c(CSc2nc(C)cc(C)n2)cc1=O
[71] O=C(/C=C/c1cn(S(=O)(=O)c2ccc(Cl)s2)c2ccccc12)N1CCCC1c1ccncc1 (configuration not stated)
[72] O=C(Cn1nnnc1CN1CCc2ccccc2C1)N1CCN(c2ncccn2)CC1

assay / compound,67,68,69,70,71,72
NPYLR7 ag,3,34,-1,-2,-9,-2
NPYLR7 ag max-min,11,30,20,-9,-18,-4

[73] C=CCNC(=O)c1ccccc1N1CCC(NS(=O)(=O)c2ccc(Cl)cc2)CC1
[74] COc1ccc(CN2CCNC(=O)C2CC(=O)N(C)Cc2ccccn2)cc1OC (configuration not stated)
[75] CC1(c2ccc(F)c(F)c2)NC(=O)N(CN2CCC(c3ccccc3)C2)C1=O (configuration not stated)
[76] Cc1ccc(F)c(-c2nccn2CCN2CCOC2=O)c1Cl
[77] O=C(c1n[nH]c(=O)c2ccccc12)N1CCN(S(=O)(=O)c2cccc(Cl)c2)CC1
[78] Cc1ccccc1Cn1cnc2c(cnn2CCNC(=O)c2ccc(F)cc2)c1=O

assay / compound,73,74,75,76,77,78
NPYLR7 ag,3,2,8,0,5,-5
NPYLR7 ag max-min,14,1,5,-7,3,-13

[79] CCCC(C)NC(=O)c1ccc(C#Cc2ccccc2)cc1 (configuration not stated)
[80] CC(C)CNC(=O)[C@@]1(OCc2cccc(C(F)(F)F)c2)CC(OCc2c(F)cccc2F)[C@H](O)[C@H](O)C1 (some centres not stated)
[81] O=C(Nc1ncc(Cc2ccccc2Br)s1)c1ccccc1F
[82] CCOC(=O)c1nn(-c2ccccc2C)c(=O)cc1NCc1ccccc1Cl
[83] COc1ccc(CCN(C)c2cc(Cl)nc(SCc3ccc(C(=O)NCCc4ccc(Cl)cc4Cl)cc3)n2)cc1OC
[84] CCC(=O)N1CCCC1(C)C(=O)Nc1ccc2nc(C)ccc2c1 (configuration not stated)

assay / compound,79,80,81,82,83,84
NPYLR7 ag,4,5,0,7,16,3
NPYLR7 ag max-min,0,17,-2,2,20,2

[85] O=C(Nc1cc(C(F)(F)F)ccc1-n1cccn1)C1CCN(C(=O)C2CC2)CC1
[86] Cn1ccc(NC(=O)COc2ccc(Cl)cc2C2CCCCC2)n1
[87] O=C(c1ccc(CSc2nccc(C(F)(F)F)n2)cc1)N1C2CCC1CC(Oc1cccc(C(F)(F)F)c1)C2 (configuration not stated)
[88] CC(NC(=O)CCc1cscn1)c1nc(-c2cccnc2)cs1 (configuration not stated)
[89] C=CC(=O)Nc1cc(NC(=O)c2cccc(C)c2)ccc1F
[90] COC(=O)c1ccc(NC(=O)CSc2nc(=O)n(CCCN(C)C)c3c2CCCC3)cc1
[91] N#CC1C(=N)OC2=C(C(=O)CCC2)C1C1CC=CCC1 (configuration not stated)
[92] COc1ccccc1-c1ccc(NC(C)Cc2cnccn2)nn1 (configuration not stated)
[93] CN(C)c1ccc(-c2nccn2CC2OCCc3ccccc32)cn1 (configuration not stated)

assay / compound,85,86,87,88,89,90,91,92,93
NPYLR7 ag,-6,2,7,-2,1,0,0,-6,4
NPYLR7 ag max-min,-7,1,-6,-3,0,5,1,-9,1
